CDC25B-CDK2 inh – human CDC25B-CDK2/CyclinA binding inhibition | P30305+P24941 | HTRF CDC25B-CDK2/CyclinA binding, anti-His/anti-Flag; active compounds read high | z-score (test concentration not listed) | 94,000 tested, 0.72% active;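 further: score is relative to mean and SD of negative controls; strong numbers were not always called active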
HIV TAR-Tat – HIV-1 TAR-Tat binding disruption. HIV-1 TAR RNA, Tat peptide displacement FRET; active compounds read high. z-score (concentration not given with the values). 100,000 tested, 0.6% active. AID 1259389;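 further: score is relative to mean and SD of negative controls; some compounds called inactive have numbers as strong as hits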
* marks the source's active call; other numbers are inactive results; nt = no result given.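 How the source made its calls: active means z-score from 3 up in half or more of its runs; inactive means the rest.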

Values in the order – CDC25B-CDK2 inh, HIV TAR-Tat
1) NCC1CCN(S(=O)(=O)c2ccccc2)CC1
 : -1.5, 1.7
2) Cc1cc(Cl)ccc1OCC(=O)NCCOC(=O)Nc1sc(=S)n(C)c1C
 : 0.11, 0.76
3) CC1=C(C(=O)OC(C)C)C(c2cccnc2)C2=C(CCCC2=O)N1 (configuration not stated)
 : 0.57, 1.4
4) COC(=O)c1cc(/C=C2\CSc3ccc(Cl)cc3C2=O)cn1C
 : -2.1, nt
5) COCCN(Cc1cccs1)S(=O)(=O)c1cc2[nH]c3c(c2cc1C)C(=O)CCC3
 : nt, 1.8
6) COc1ccc(-c2nc(NCCN3CCN(C)CC3)c3ccccc3n2)cc1
 : nt, 2.1
7) CC(C)c1ccc(C2c3c(oc4ccccc4c3=O)C(=O)N2CCCN2CCOCC2)cc1 (configuration not stated)
 : -0.72, -0.4
8) CN(c1ccc(Cl)cc1)S(=O)(=O)c1ccsc1-c1nc(-c2cccs2)no1
 : nt, 0.45
9) O=c1[nH]cccc1-c1nc(-c2ccc(Cl)cc2)no1
 : -1.7, 0.34
10) CCN(CC)S(=O)(=O)c1nnc(NC(=O)C2CCCCC2)s1
 : 0.89, 0.02
11) COCCOC(=O)C1=C(C)Nc2nc3ccccc3n2C1c1ccc(OC)c(OC)c1 (configuration not stated)
 : 0.17, -1.4
12) CC(C)(C)c1cc(N=Cc2ccc(O)cc2)c(C#N)s1
 : -2.2, nt
13) CCOc1ccc(C2CC(=O)N3CN(C(C)c4ccccc4)CSC3=C2C#N)cc1 (configuration not stated)
 : 5.3*, 3.2
14) Cc1ccc(-n2ccc(=O)c(C(=O)Nc3c(C(=O)Nc4cccc(C)c4)oc4ccccc34)n2)cc1
 : 1.4, -0.61
15) Cc1ccccc1N1C(=O)CN(Cc2sccc2C)C1=S
 : -1, nt
16) Cc1ccc(S(=O)(=O)N2CCCN(c3nccc(C(F)(F)F)n3)CC2)cc1
 : -0.22, nt
17) O=C(c1ccc(-c2noc(C3CC3)n2)cc1)N1CCN(C(=O)c2ccco2)CC1
 : nt, -0.27
18) O=C(O)CCCc1cn(Cc2ccccc2Cl)c2ccccc12
 : -0.03, 1.4
19) Cn1cc(Cl)c(C(=O)Nc2ccncc2)n1
 : -1.6, 2.9
20) COc1ccc(C(CC(=O)c2cccs2)Sc2ccccc2N)c(Cl)c1OC (configuration not stated)
 : -1.7, nt

From compound 19 to 20, copied from above:
Values in the order – CDC25B-CDK2 inh, HIV TAR-Tat
19) Cn1cc(Cl)c(C(=O)Nc2ccncc2)n1
 : -1.6, 2.9
20) COc1ccc(C(CC(=O)c2cccs2)Sc2ccccc2N)c(Cl)c1OC (configuration not stated)
 : -1.7, nt

The list goes on.
Values in the order – CDC25B-CDK2 inh, HIV TAR-Tat
21) CC(C)(C)NCC(O)COc1nsnc1N1CCOCC1 (configuration not stated)
 : -1.1, nt
22) CCOCCOC(=O)C1=C(C)NC2=C(C(=O)CC(C)(C)C2)C1c1ccc(O)c(OC)c1 (configuration not stated)
 : -2.1, 0.87
23) CC(C)(C)C(=O)CN1C(=O)C(=O)c2ccccc21
 : nt, 1.4
24) COC(=O)c1cc(NC(=O)c2cccc(Cl)c2Cl)cc(C(=O)OC)c1
 : -2.6, nt
25) CCOC(=O)c1c(C)oc2ccc(NS(=O)(=O)c3cccc4cccnc34)cc12
 : -0.6, 0.94
26) CCc1c(CN2CCCCC2)csc1C
 : nt, 1.7
27) CC(C)(C)c1ccc2c(c1)CN(C(C)(C)C)CO2
 : 0.53, nt
28) CC(C)(C)c1ccc(C(=O)O)cc1[N+](=O)[O-]
 : -0.34, nt
29) CCc1oc2cc(O)ccc2c(=O)c1-c1nc2ccccc2n1C
 : 0.08, 0.84
30) CCCCN(C)C(=O)C1CCN(c2ccc(-c3cccs3)nn2)CC1
 : nt, 0.47
31) CCc1cccc(NS(=O)(=O)c2c(C)nc3sc4ccccc4n3c2=O)c1
 : nt, 1.5
32) Nc1ccccc1C(=O)NNC(=O)c1ccc(Cl)cc1
 : -0.95, nt
33) Cc1ccc(CNS(=O)(=O)c2cc3[nH]c4c(c3cc2C)C(=O)CCC4)cc1
 : nt, 1.1
34) Cc1cc(-c2ccccc2)cc(-c2ccccc2)[o+]1
 : -3.5, -0.4
35) CC(C)(C)OC(=O)C(C(=O)OC(C)(C)C)c1nc(N2CCOCC2)nc(N(c2ccccc2)c2ccccc2)n1
 : -1.4, nt
36) Cc1ccc(CSc2nc(=O)c3c(n2C)NC(=O)CC3c2ccc(O)c(O)c2)cc1 (configuration not stated)
 : -0.12, 26*
37) COC(CNC(=O)C(=O)Nc1ccccc1Oc1ccc(Cl)cc1Cl)OC
 : -0.35, nt
38) O=C(NC1CCCC1)c1ccc(N2CCOc3ccccc32)s1
 : nt, 0.02
39) O=C1c2[nH]nc(-c3ccccc3O)c2C(c2cccc(Cl)c2)N1CC1CCCO1 (configuration not stated)
 : -0.23, 1.6
40) COc1ccccc1N1CCN(Cc2cc(Br)c(O)c3ncccc23)CC1
 : -0.52, 1.1
41) Nc1cccc(-c2ccc3ccccc3n2)c1
 : nt, -1.7
42) Cc1ccc(C2=NN3C(C2)c2ccccc2OC3c2ccncc2)cc1 (configuration not stated)
 : -1.2, -0.75
43) CCCN1C(=O)C2(c3ccccc31)c1c(oc3ccc(F)cc3c1=O)C(=O)N2CC1CCCO1 (configuration not stated)
 : -1.8, 2.8
44) CCOC(=O)Cc1csc2nc(=O)c3c(C)c(C)sc3n12
 : -0.1, 0.16
45) CCOC(=O)c1noc(C)c1-c1csc(N)n1
 : -0.92, nt
46) Cc1ccc(NC(=O)C2Sc3nnc(C)n3NC2c2ccc(F)cc2)c(Br)c1 (configuration not stated)
 : 0.17, 0.76
47) O=C(Oc1c(-c2ccccc2)c(=O)n2c3c(cccc13)CCC2)c1ccc(Cl)cc1
 : -0.38, nt
48) Cc1ccc(CNc2ncnc3c2cnn3-c2ccc(C)c(Cl)c2)cc1
 : nt, 0.7
49) CC1CSc2ccccc2N(C(=O)C2CCN(S(=O)(=O)c3cccnc3)CC2)C1 (configuration not stated)
 : nt, 2.1
50) Nc1nc(N)c(Cc2ccccc2)cc1Cc1ccccc1
 : -1.9, nt
51) CC1CCN(CC[C@H]2CCCN2S(=O)(=O)c2cccc(O)c2)CC1
 : -1.2, nt
52) COc1ccc(N2C(=O)c3cccnc3C2Nc2cc(OC)cc(OC)c2)cc1 (configuration not stated)
 : nt, -0.84
53) CCc1nc(Cl)c2onc(-c3ccc(C)cc3)c2n1
 : -1.1, 0.78
54) O=C(CSCc1cnn(-c2ccccc2)c1-n1cccc1)NCC1CCCO1 (configuration not stated)
 : 1.7, 1.6
55) CC1(C(=O)NC2CCCC2)Cn2c(ccc2-c2ccco2)C(=O)N1Cc1ccco1 (configuration not stated)
 : nt, 3.7*
56) CCCCc1ccc(N2CC(O)=C(c3nc4ccccc4[nH]3)C2=N)cc1
 : 1.1, 1.1
57) O=C1C(=O)N(CCCn2ccnc2)C(c2ccccc2F)/C1=C(\O)c1ccc(Br)cc1 (configuration not stated)
 : -0.52, 0.2
58) COC(=O)c1ccc(C2Oc3ccccc3C3CC(c4cccs4)=NN32)cc1 (configuration not stated)
 : 1.8, 1.9
59) COC(=O)c1sc2ccc(N)cc2c1OCC(C)C
 : 3, -2.2
60) CCOc1ccc(N2C(=O)CC(N3CCC(N4CCCCC4)CC3)C2=O)cc1 (configuration not stated)
 : -3, 0.95
61) Cc1ccc(-c2c(Nc3ccc(C)c(Cl)c3)c(=O)c2=O)cc1C
 : nt, 2.1
62) O=S(=O)(Nc1cccc(F)c1)c1ccc2[nH]c3c(c2c1)CCCCC3
 : nt, 2.8
63) CC(=O)c1ccc(S(=O)(=O)c2ccccc2)cc1
 : -1.3, nt
64) Cc1nn(C)c2c1c(C(F)(F)F)cc(=O)n2CC(=O)Nc1ccc(Br)cc1F
 : nt, -0.79
65) O=S(=O)(c1ccc(C2CCCCC2)cc1)N1CCC(N2CCOCC2)CC1
 : nt, 0.45
66) Cc1cccc(-c2nnc3n2N=C(c2ccc(Cl)cc2)CS3)c1
 : nt, 0.48
67) COc1ccc(OC)c(-n2c(SCC(=O)Nc3nccs3)nnc2-c2c[nH]c3ccccc23)c1
 : -0.22, nt
68) Cn1cnc2c1c(=O)n(Cc1ccc(-c3nnc(N)s3)cc1)c(=O)n2C
 : -1.8, nt
69) COc1cccc2c1NC(c1cccc3ccccc13)C1CC=CC21 (configuration not stated)
 : -0.13, 6.4*
70) N#Cc1c(C(F)(F)F)cc(-c2cccs2)nc1SCC(=O)NC1CC1
 : 0.92, nt

Next section, starting with the last 6 of the part before.
Values in the order – CDC25B-CDK2 inh, HIV TAR-Tat
65) O=S(=O)(c1ccc(C2CCCCC2)cc1)N1CCC(N2CCOCC2)CC1
 : nt, 0.45
66) Cc1cccc(-c2nnc3n2N=C(c2ccc(Cl)cc2)CS3)c1
 : nt, 0.48
67) COc1ccc(OC)c(-n2c(SCC(=O)Nc3nccs3)nnc2-c2c[nH]c3ccccc23)c1
 : -0.22, nt
68) Cn1cnc2c1c(=O)n(Cc1ccc(-c3nnc(N)s3)cc1)c(=O)n2C
 : -1.8, nt
69) COc1cccc2c1NC(c1cccc3ccccc13)C1CC=CC21 (configuration not stated)
 : -0.13, 6.4*
70) N#Cc1c(C(F)(F)F)cc(-c2cccs2)nc1SCC(=O)NC1CC1
 : 0.92, nt
71) c1ccc(CSc2nn3cnnc3s2)cc1
 : 0.57, 0.68
72) CCCc1ccc(-c2nc(CS(=O)(=O)C(C)(C)C)no2)cc1
 : -2.1, nt
73) CC(C)c1ccc(NS(=O)(=O)c2ccc3c(c2)C(C(C)C)C(=O)N3)cc1 (configuration not stated)
 : nt, 1.6
74) Cc1ccc2nc(NC(C)c3ccccc3)c3nnnn3c2c1 (configuration not stated)
 : -1.6, -0.63
75) CCCC(NC(=O)CN1C(=O)CSc2cccn2-c2ccccc21)c1cccs1 (configuration not stated)
 : nt, 0.7
76) Cc1ccsc1CN(C(=O)c1sc2cccc(Cl)c2c1Cl)C1CCS(=O)(=O)C1 (configuration not stated)
 : -6.2, -0.13
77) O=C(c1nn2c(c1Cl)NC(c1cccs1)CC2C(F)(F)F)N1CCCc2ccccc21 (configuration not stated)
 : 2.6, 2.2
78) O=C(CSc1nnc(-c2ccc(Cl)cc2)o1)N1CCOCC1
 : -1.2, nt
79) O=C(C1CCCN(c2ncnc3c2nc2n3CCCCC2)C1)N1CCN(c2ccccn2)CC1 (configuration not stated)
 : nt, -0.63
80) CCOc1ccc2c3c(c(=O)oc2c1)CCCC3
 : -0.83, nt
81) CC1CCCC(NC(=O)c2cnn3c4c(cnc23)CCCCCC4)C1C (configuration not stated)
 : nt, 1.9
82) NC(=O)C1CCN(C(=O)c2cc3c(s2)-c2ccccc2SC3)CC1
 : -0.73, 0.9
83) Cn1c2ccccc2c2c(C(=O)Nc3ccc4c(c3)OCCO4)cn(C3CCCC3)c(=O)c21
 : -2.1, -0.35
84) Cc1nc(-c2ccc(C)c(S(=O)(=O)N(C)C3CCCCC3)c2)cs1
 : nt, 2.1
85) CC(=O)N1c2ccc(S(=O)(=O)N(C)CC(=O)N3CCc4ccccc4C3)cc2CC1C (configuration not stated)
 : nt, -0.81
86) FC(F)(F)c1nn2cc(-c3ccccc3)nc2s1
 : 0.08, 1.7
87) C=CCc1ccccc1OCc1cc(=O)n2nc(-c3cccs3)sc2n1
 : 0.08, -1.3
88) CC(C)CCCC(C)[C@H]1CCC2C3CC=C4CC(=O)CC[C@]4(C)C3CC[C@@]21C (some centres not stated)
 : nt, 1.9
89) Cc1ccc(S(=O)(=O)[C@H]2CS(=O)(=O)C[C@@H]2N2CCN(c3cccc(C)c3)CC2)cc1
 : -1.8, -0.3
90) Cc1c(OCC(=O)O)ccc2c1oc(=O)c1ccccc12
 : 0.45, 0.6
91) O=C(Nc1ccc2ccccc2n1)c1cc(Cl)sc1Cl
 : 0.63, nt
92) Oc1ccccc1C1=NN2C(C1)c1ccccc1OC2c1cccs1 (configuration not stated)
 : 1.3, -1.7
93) Fc1cc(F)cc(-c2noc3ncnc(NCc4ccc5c(c4)OCO5)c23)c1
 : nt, 0.62
94) COC(=O)C1C(=O)C2=C(CC1C)NC(=O)CC2c1ccc(Cl)cc1 (configuration not stated)
 : -0.08, 0.79
95) CN(C)S(=O)(=O)c1ccc2c(c1)N(CC(=O)NC1CCCC1)C(=O)CS2
 : nt, 1.7
96) COc1ccc2nc3c(cc2c1)C(=O)N=N3
 : -1.2, nt
97) CCc1cc(N2CCN(c3cc(Cl)ccc3C)CC2)n2ncnc2n1
 : -3.2, -0.09
98) C=CCOC(=O)C1=C(C)Nc2nc(SCCCC)[nH]c(=O)c2C1c1ccccc1 (configuration not stated)
 : -1.1, 1.1
99) Cc1cc(=O)n2c(-c3ccccc3)csc2n1
 : -1.6, 1.7
100) CC1O[C@]2(C)OC1[C@]1(C)OC(C)[C@H]2O1 (some centres not stated)
 : -0.41, nt
101) Cn1c(=O)sc2cc(NC(=O)c3ccco3)ccc21
 : nt, 1.7
102) Cc1ccccc1Nc1nc(NCc2ccccc2)nc2c1cnn2C
 : nt, 0.21
103) COc1ccc(OC)c(N2C(=O)CC(Cc3ccc(Cl)cc3)C2=O)c1 (configuration not stated)
 : -0.62, -0.35
104) CC1CCc2cc(F)ccc2N1S(=O)(=O)c1cc2c3c(c1)CC(=O)N3CCC2 (configuration not stated)
 : nt, 2.2
105) COc1cc(NC(=O)CCc2nnc3ccc(N4CCCCC4)nn23)cc(OC)c1
 : nt, 0.28
106) CCOC(=O)c1cnn(-c2ccccc2)c1NC(=O)CSc1nc2ccccc2s1
 : 19*, nt
107) O=S(=O)(Nc1ccccc1F)c1ccc(N2CCCCS2(=O)=O)cc1
 : nt, 0.99
108) O=c1c(NCCC2=CCCCC2)c(-c2ccc(Cl)cc2)c1=O
 : nt, -0.2

Entries by screen from the entries so far.
CDC25B-CDK2 inh, nos. 37 to 47, in order: -0.35, nt, -0.23, -0.52, nt, -1.2, -1.8, -0.1, -0.92, 0.17, -0.38

Source: PubChem BioAssay
